# Sfp inh: inhibitors of Bacillus subtilis Sfp phosphopantetheinyl transferase; Q9F4F7; Biochemical Sfp PPTase activity, qHTS; Potency, µM, inactives show max response, negative = inhibition, hits mostly inhibitors; 310,000 compounds, 3.5% hits; AID 1490; active = well fitted inhibition curve with a large enough effect; inconclusive = small, poorly fitted or top-dose-only effect, or another doubt; inactive = no such curve, though single readings can be large or run the other way;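 also: the enzyme is Sfp with the accession as filed and its product quenches rhodamine fluorescence; potency is read from the fitted curve at half-maximal effect; 0% = enzyme reaction without inhibitor and -100% = no enzyme wells; top concentration of the series not given in the record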
#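 Fluorescence-quenching assay: 15 nM Sfp-PPTase preincubated 15 min at room temperature with compound, then 5 uM rhodamine-CoA and 12.5 uM BHQ-2-labelled YbbR peptide added. Fluorescence (ex 525/em 598 nm) read at start and after 30 min; difference gives rate.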
# PINK1 expr mod: changes PINK1 expression; 410,000 compounds, 0.2% hits; PINK1 immunofluorescence, high-content cytometry, 24 h; Potency, µM (highest dose often 76.6 µM), without a hit: at the top dose activation (PINK1 increase), actives largely listed as activators; AID 624263; active = well fitted activation curve with a large enough effect; inconclusive = small, poorly fitted or top-dose-only effect; inactive = flat fitted curve, though single readings scatter; cell line not stated here;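 also: potency is read from the fitted curve at half-maximal effect; % of control where 0% means no effect; nearly all actives have a fitted effect of over 65% in size; a mitochondrial uncoupler was the plate control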
#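 A stable cell line was treated with compounds at 5 concentrations for 24 hours, with CCCP as control. PINK1 levels and mitochondrial localization were measured by immunofluorescence with mitochondrial, cell and nuclear markers after fixation, read by laser-scanning cytometry.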
# Menin-MLL FL inh: menin-MLL binding inhibition, fluorescein peptide. Fluorescence polarization, fluorescein-MLL peptide displacement from menin. FP activity change, % at 61.4 µM. 290,000 tested, under 10 active; inconclusive = falling polarisation curve, or a change in total fluorescence; inactive = total fluorescence flat and polarisation flat or rising; no compound was filed as active; the % refers to the polarisation; negative = inhibition;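 also: % of control where 0% means no effect; inhibitors lower the polarisation; unlabelled MLL peptide was the positive control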
# gsp antag: antagonists of gsp mutant (McCune-Albright syndrome); gsp-mutant cells, cAMP HTRF, 30 min; control for the full effect not named in the record; Potency, µM (highest dose often 76.9 µM), for inactives: at the top dose activity change, negative = inhibition, usual class: inhibitors; 340,000 compounds, 0.4% hits; AID 624288; active = falling curve of any shape with a large fitted effect; inconclusive = falling curve, mostly with a smaller effect; inactive = flat or rising curve; cell line not stated here;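 also: intracellular cAMP measured with PDE inhibitor Ro 20-1724 present during compound exposure; potency is read from the fitted curve at half-maximal effect; % is scaled to controls: 0 for no effect and ±100 for the full control effect; nearly all actives have a fitted effect of over 65% in size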
#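 Cells, 2000/well, grown 16–24 h in DMEM 10% FBS with 0.5 mg/ml G418, then compounds plus […] (300 uM addition stock), 30 min at 37C. cAMP read by HTRF (cAMP-d2 and anti-cAMP antibody-K in lysis buffer) after 30 min RT.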
# ClpP mod: qHTS Assay for Activators of ClpP; ATP-dependent Clp protease proteolytic subunit (Bacillus subtilis (strain 168)), P80244; purified B. subtilis ClpP, FRET peptide cleavage, 20 min; Potency, µM (titrated, usually from 57.5 µM), for inactives: at the top dose activity change, negative = active; 340,000 compounds, 1.9% hits; active = well fitted falling curve with a large enough effect; inconclusive = small, poorly fitted or top-dose-only effect; inactive = no such curve, though single readings can be large or run the other way; also: potency is read from the fitted curve at half-maximal effect; the source files actives as falling curves though it sought activators and does not explain the sign; nearly all actives have a fitted effect of over 65% in size; many hits overshoot -100%
# Target sequence (P80244 whole entry, looked up): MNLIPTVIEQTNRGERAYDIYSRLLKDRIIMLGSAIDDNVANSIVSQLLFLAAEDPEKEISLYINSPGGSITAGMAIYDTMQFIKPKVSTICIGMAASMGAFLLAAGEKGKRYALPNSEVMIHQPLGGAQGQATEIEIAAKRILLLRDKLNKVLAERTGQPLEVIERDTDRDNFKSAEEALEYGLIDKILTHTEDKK
#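 Purified B. subtilis ClpP, 10 microg/mL final in Tris/HCl pH8 with KCl, BSA, glycerol and Tween-20, cleaved an Abz/nitrotyrosine-quenched decapeptide. Fluorescence (ex 320, em 430) was read at 0 and 20 min at room temperature. Delta was normalized to 5.8 microM ADEP and DMSO/no-enzyme controls.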
# gsp agonist: gsp mutant agonism | gsp mutant cells, cAMP HTRF, 30 min; control for the full effect not named in the record | Potency, µM (highest dose often 76.9 µM), without a hit: top-dose activation (cAMP increase), most hits filed as activators | 340,000 compounds, 0.13% hits | AID 624287; active = well fitted activation curve with a large enough effect; inconclusive = small, poorly fitted or top-dose-only effect, or another doubt; inactive = no such curve, though single readings can be large or run the other way; cell line not stated here;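 also: phosphodiesterase inhibitor Ro 20-1724 added with compounds to block cAMP breakdown; potency is read from the fitted curve at half-maximal effect; nearly all actives have a fitted effect of over 60% in size; about a fifth of the inactives were tested at one dose only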
#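 Cells stably selected in G418 were plated at 2000/well, grown 16-24 hr, then given compounds in DMSO with the PDE inhibitor […] (300 uM solution added) for 30 min at 37C; cAMP was read by HTRF.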
# D2 agonist: human D2 receptor agonism in beta-arrestin assay; P14416; DiscoveRx PathHunter D2 beta-arrestin, luminescence, 90 min; 100% = 57 uM dopamine signal; activation, % (test concentration not listed); 360,000 compounds, 0.084% hits; in the data active = activation above about 40%; inconclusive = about 15% to 40%; inactive = below about 15%; also: compound concentration not given in the record; the text of the record calls up to 30% inactive
# Target sequence (P14416 whole entry, looked up): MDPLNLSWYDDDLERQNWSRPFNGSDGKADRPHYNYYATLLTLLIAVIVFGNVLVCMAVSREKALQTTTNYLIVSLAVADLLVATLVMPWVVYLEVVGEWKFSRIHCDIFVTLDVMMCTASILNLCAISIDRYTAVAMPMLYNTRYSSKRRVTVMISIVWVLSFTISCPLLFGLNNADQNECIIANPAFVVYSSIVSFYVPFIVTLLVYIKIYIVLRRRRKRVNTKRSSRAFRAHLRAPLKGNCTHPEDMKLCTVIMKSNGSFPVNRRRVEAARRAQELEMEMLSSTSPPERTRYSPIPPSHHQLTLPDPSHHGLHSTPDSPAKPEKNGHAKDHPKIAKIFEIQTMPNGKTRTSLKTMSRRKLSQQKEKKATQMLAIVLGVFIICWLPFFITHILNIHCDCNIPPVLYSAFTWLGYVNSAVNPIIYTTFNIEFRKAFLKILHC
#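 DiscoveRx PathHunter D2 beta-arrestin cells (2,100/well) attached overnight, then compound-stimulated 90 min at 37 C in HBSS/10 mM HEPES/0.1% Tween-20 buffer; beta-galactosidase complementation read by luminescence after 1 h at ambient temperature. Dopamine 57 uM final (EC100) as control.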
# Active calls of the source: *; ? = inconclusive; . = not tested or not shown; & = joins results of further samples; [ ] = remark or other dose.
SMILES	Sfp inh	PINK1 expr mod	Menin-MLL FL inh	gsp antag	ClpP mod	gsp agonist	D2 agonist
CCCCN1C(=O)c2ccc(C(=O)Nc3ccc(S(=O)(=O)N(C)C)cc3)cc2C1=O	-2%	-0.9%	-0.2	-22%	-1.6%	3%	-1.3
Cc1cccc(N=C2N=C(N)c3ccccc32)c1	4%	-1.3%	1.5	7%	-1.3%	-63%[inhibitor]	-5.5
CC(=O)Nc1ccc(C(=O)COC(=O)C2CC3CCCC(C2)C3=O)cc1 (stereo unspecified)	.	0.3%	.	-5%	-1.2%	6%[15.4 µM]	-2.2
C=CCNc1nc(-c2sc(NC(=O)CC)nc2C)cs1	-18%	-0.4%	-1.4	-6%	-6.5%	4%	-4.0
CCOC(=O)C1(CC2CCCCO2)CCN(C(=O)Nc2ccccc2CC)CC1 (stereo unspecified)	8%	1.4%	-0.1	-8%	0.2%	-107%[inhibitor]	-2.4
CCOc1ccc2nc(Nc3nc4ccc(NC(C)=O)cc4s3)sc2c1	-21%	-1.5%	6.4	-14%	?	-3%	-2.2
CCCCCCOc1ccc(/C(C)=N/NC2=NCCN2)cc1	56µM*	-1.3%	-12	5%	0.8%	17%	-7.2
Cc1cc(C)cc(OCC(=O)OCC(=O)Nc2cc(C)nn2-c2ccccc2)c1	.	1.3%	.	-1%	0.9%	-7%	-0.2
Cc1nc(S(=O)(=O)N(C)c2ccccc2)c(C#N)c(C)c1Cl	19%	-2.3%	-0.9	-16%	-1.1%	-13%	-1.0
COc1ccc(CCNC(=O)CC2(CC3=NS(=O)(=O)c4ccccc4N3)CCCC2)cc1OC	16%	2.6%	.	-17%	-0.7%	-52%	2.3
NC(CSC(c1ccccc1)(c1ccccc1)c1ccc2c(c1)OCO2)C(=O)O (stereo unspecified)	.	6.6%	.	.	1.4%	-25%	-1.6
COc1cc2c(cc1OC)C(c1cccnc1)CC(=O)N2 (stereo unspecified)	5%	0.4%	1.6	4%	-2.5%	-105%[inhibitor]	2.0
CCC(=O)c1cn(CC(=O)Nc2ccccc2Cl)c2ccccc12	2%	11%	-4.5	-3%	.	-25%	-3.2
Cc1ccccc1NC(=O)CNc1ccc(Cl)c(C(F)(F)F)c1	-1%	7.8%	11	2%	-1.2%	-22%	0.8
CC(C)(C)c1ccc(OCCC(=O)NC2=NCCS2)cc1	-8%	-0.8%	3.5	0%	-2.4%	4%	-2.3
Cc1ccc(S(=O)(=O)N(C)C[C@H]2OCCCC[C@H](C)Oc3ccc(NC(=O)Nc4cccc5ccccc45)cc3C(=O)N([C@@H](C)CO)C[C@H]2C)cc1	.	-0.1%	.	.	4.3%	-64%[inhibitor]	-6.9
CCOc1ccc(N2C(=O)Nc3ccc(Br)cc3C2(O)C(=O)NCCCN(C)C)cc1 (stereo unspecified)	5%	1.7%	-1.8	10%	.	-8%	-2.6
COc1cc2c(cc1NC(=O)COC(=O)[C@@H](NC(=O)c1ccccc1F)C(C)C)oc1ccccc12	?	0.8%	1.1	-13%	5.6µM*	-48%[inhibitor]	-1.3
O=C(N1CCOCC1)N1CCc2ccccc21	14%	1.0%	-0.7	13%	0.0%	8%	3.9
C=CCOC(=O)C1=C(C)N=c2s/c(=C3\C(=O)N(CC(=O)O)c4ccccc43)c(=O)n2C1c1ccc(OC)cc1 (stereo unspecified)	25µM*	0.1%	-0.2	-3%	1.9%	20%	-7.3
COc1ccccc1C(=O)NC(CCSC)C(=O)NCCCSc1ccccc1 (stereo unspecified)	.	2.3%	.	?	-0.7%	4%	0.8
C=C(C)Cn1c(N(CCO)Cc2ccccc2)nc2c1c(=O)[nH]c(=O)n2C	7%	0.7%	0.4	8%	1.8%	-5%	1.9
CNS(=O)(=O)c1cccc(C(=O)OCC(=O)Nc2ccc(OC)cc2[N+](=O)[O-])c1	13%	-1.6%	-2.3	0%	0.3%	-2%	11
CCC(C)OC(=O)c1cc(C)nc2c(Br)cc(Br)cc12 (stereo unspecified)	-1%	5.2%	-1.5	4%	0.7%	?	-2.1
COc1ccc(C2CC2/C(C)=N/OC(=O)c2ccc(F)cc2)cc1 (stereo unspecified)	-3%	0.4%	2.7	-5%	.	-31%[inhibitor]	2.5
COc1cc(/C=N/n2c(C)n[nH]c2=S)ccc1OCc1ccccc1	?	0.4%	2.5	-4%	4.8%	0%	-0.6
CCOC(=O)C1(C)CCCN1C(=O)c1snnc1C (stereo unspecified)	.	0.5%	.	.	-0.3%	.	-5.4
O=C(CCc1nc2ccccc2s1)OCC(=O)N1CCN(C(=O)c2ccco2)CC1	21%	0.4%	0.4	-8%	-1.2%	5%	-1.4
COCCCNC(=S)N1CCN(c2nc(-c3ccccc3)cs2)CC1	-3%	0.5%	-1.5	32µM*	-1.5%	?	-3.2
O=C(NCCCN1CCN(Cc2ccccc2Cl)CC1)Nc1ccccc1	-6%	0.1%	1.5	-2%	-4.5%	6%	-3.3
O=C(OCCN=C1NS(=O)(=O)c2ccccc21)c1ccccc1	-2%	1.3%	-1.8	-6%	-2.2%	-34%[inhibitor]	-1.9
Cc1cccc2cc(CN(CCN(C)C)C(=S)NCc3ccco3)c(=O)[nH]c12	4%	-0.7%	-1.5	1%	-5.0%	-5%	-2.6
O=C(Nc1ccc([N+](=O)[O-])cc1)/C(=C/c1cccc([N+](=O)[O-])c1)NC(=O)C1CCCCC1	24%	.	3.1	3%	-0.3%	-13%	-3.7
CCOC(=O)c1cc(-c2ccco2)nc2c1c(C)nn2-c1cccc(Cl)c1	?	-0.4%	6.3	-22%	-12%	-12%	-0.4
N#Cc1ccsc1NC(=O)CN1CCN(S(=O)(=O)c2ccccc2C(F)(F)F)CC1	20%	-1.5%	0.5	0%	1.2%	-12%	-2.4
Cc1ccc(NC(=O)CSc2ncccn2)cc1S(=O)(=O)N1CCOCC1	.	1.6%	.	-6%	1.8%	-46%[inhibitor]	-3.1
Cc1cccc(-n2c(=S)[nH]c3nc4c(cc3c2=O)COC(C)(C)C4)c1	17%	-0.2%	4.3	-2%	.	4%[15.4 µM]	-4.6
CC(NC(=O)CN1C(=O)NC2(CCCC2)C1=O)c1ccc(Cl)cc1Cl (stereo unspecified)	.	0.2%	.	5%	-3.8%	1%[15.4 µM]	-1.1
Cc1ccc(C(=O)N2CCCc3ccccc32)c(Cl)c1	.	2.2%	.	.	1.9%	5%	-5.6
COc1cc(C2C(C#N)=C(N)Oc3cc(C)n(CCN4CCOCC4)c(=O)c32)cc(OC)c1OC (stereo unspecified)	26%	-0.3%	2.6	9%	-3.5%	-14%	-1.2
Cc1cccc(/C=N/NC(=O)CN2CCCCCCC2)c1	-6%	-0.6%	2.4	3%	-2.4%	-20%	-2.4
O=C(Nc1c(Cl)cc(Cl)cc1C(=O)NCC1CCCO1)c1ccco1 (stereo unspecified)	23%	-1.0%	0.1	2%	-1.4%	4%	-0.7
COc1ccc(-n2nc(C(=O)NCc3ccco3)c3ccccc3c2=O)cc1	16%	23%[38.3 µM]	6.2	14%	22µM*	41%	-3.8
NC(=O)c1c(NC(=O)C2c3ccccc3Oc3ccccc32)sc2c1CCCCC2	35µM*	?	.	-1%	1.1%	-46%[inhibitor]	-5.6
Fc1ccc(C2c3cccn3CCN2C(=S)Nc2cccc(F)c2)cc1 (stereo unspecified)	21%	?	9.9	-15%	-3.1%	-6%[15.4 µM]	-2.3
O=C(O)c1cnn2cc(-c3[nH]ncc3[N+](=O)[O-])cnc12	-26%	9.8%	7.8	0%	0.9%	-49%[inhibitor]	-7.9
CCOc1cc(C=O)ccc1OCCSc1ccc(Cl)cc1	-18%	12%[38.3 µM]	0.4	-4%	-1.4%	-22%	-0.8
CCOC(=O)c1c(C)[nH]c(C)c1S(=O)(=O)N(C)CC(=O)Nc1ccccc1OC	12%	-0.1%	0.7	-1%	-3.7%	?	1.4
CC(=O)OC1CC(n2ccc(NC(=O)c3ccccc3)nc2=O)OC1CO (stereo unspecified)	4%	2.5%	-0.7	-5%	-6.1%	-29%	0.1
CCCc1ccc2ccc3ccccc3c2n1	.	10%	.	.	?	.	-5.1
Cc1cc(C)nc(-n2nc(C)c3c(C(F)F)cc(C)nc32)n1	0%	0.4%	1.3	7%	-22%	?	-1.6
O=C(Cc1c[nH]c2ccccc12)NCc1ccc2c(c1)OCO2	3%	-3.4%	2.1	-5%	-4.0%	0%	-2.2
CCCCC(=O)N/C(N)=N/c1nc2ccccc2o1	27%	5.5%	-0.9	-4%	.	-6%	5.9
CCOc1ccc(NC(=O)CN2CCC(n3cnc4cc(F)ccc43)CC2)cc1	18%	0.8%	-0.5	-10%	.	?	-0.6
CCC(=O)N1c2ccccc2NC2=C(C(=O)CC(C)(C)C2)C1c1ccc(O)c(OC)c1 (stereo unspecified)	5%	3.0%	-3.9	4%	-3.6%	-51%[inhibitor]	-6.9
Cn1c(CNC(=O)CCNC(=O)c2ccc(F)c(F)c2)cc(=O)n(C)c1=O	10%	-0.1%	-0.3	15%	-6.2%	?	1.2
CCOC(=O)Cc1csc(NC(=O)C2CCCN(S(=O)(=O)c3cnc[nH]3)C2)n1 (stereo unspecified)	-10%	1.1%	-0.9	3%	0.5%	-20%	-5.1
Cc1ccnc(NS(=O)(=O)c2ccc(NC(=O)C3CC3)cc2)n1	-1%	3.9%	.	4%	-1.7%	27%[15.4 µM]	-3.0
Cc1cc(N2CCN(C)CC2)nc2ccc(NC(=O)c3ccccc3F)cc12	18%	1.9%&0.4%	-1.1	2%	-7.8%	-51%[inhibitor]	-3.9

# High-throughput results deposited in PubChem by National Center for Advancing Translational Sciences (NCATS).
